Screening data deposited in PubChem by several laboratories.
PKD1 kinase inh = inhibitors of human PKD1 kinase; inhibition, %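 (about 10 µM by stock and volumes)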; Q15139; 200,000 compounds, 0.056% hits; AID 797; PKD1 kinase fluorescence polarization assay;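 active means inhibition of 50% or more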;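 further: controls were vehicle for no effect and a reference inhibitor for full effect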
Target sequence (Q15139 whole entry, looked up): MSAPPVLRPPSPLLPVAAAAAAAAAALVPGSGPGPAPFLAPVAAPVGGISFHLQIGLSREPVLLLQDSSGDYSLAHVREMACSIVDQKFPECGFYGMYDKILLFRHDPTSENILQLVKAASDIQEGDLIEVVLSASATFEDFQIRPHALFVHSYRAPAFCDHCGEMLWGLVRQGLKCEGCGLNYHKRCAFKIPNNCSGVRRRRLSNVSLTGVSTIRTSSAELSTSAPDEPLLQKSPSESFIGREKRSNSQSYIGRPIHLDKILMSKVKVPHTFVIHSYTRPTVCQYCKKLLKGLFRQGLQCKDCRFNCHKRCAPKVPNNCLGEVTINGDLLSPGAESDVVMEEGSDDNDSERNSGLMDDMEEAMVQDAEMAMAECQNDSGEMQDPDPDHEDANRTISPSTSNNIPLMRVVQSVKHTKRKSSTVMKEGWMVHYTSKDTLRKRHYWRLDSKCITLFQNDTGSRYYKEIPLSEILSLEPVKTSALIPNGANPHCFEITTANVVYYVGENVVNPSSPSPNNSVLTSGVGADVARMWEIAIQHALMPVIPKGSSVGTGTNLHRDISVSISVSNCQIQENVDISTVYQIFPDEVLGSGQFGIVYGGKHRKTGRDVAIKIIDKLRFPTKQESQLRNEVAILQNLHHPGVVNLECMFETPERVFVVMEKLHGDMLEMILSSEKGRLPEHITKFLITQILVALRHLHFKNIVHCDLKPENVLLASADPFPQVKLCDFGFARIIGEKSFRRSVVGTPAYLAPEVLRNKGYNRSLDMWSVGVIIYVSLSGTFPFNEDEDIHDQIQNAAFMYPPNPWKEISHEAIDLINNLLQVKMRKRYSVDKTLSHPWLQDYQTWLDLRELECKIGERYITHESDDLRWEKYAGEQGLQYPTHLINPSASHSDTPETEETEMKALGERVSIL
HSV replic up = HSV replication enhancement. AID 1956. maximum fold increase. HSV replication augmentation in cells, fold increase. 220,000 compounds, 0.005% hits;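 active means peak rise of 1.5-fold or more in the series; tested in PC3 cells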;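 further: first round at 10 µM; read as green reporter fluorescence; hits show the peak of a series up to 25 µM; 1 = signal of infected wells without compound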
Insulin prom inh = TRM-6 insulin promoter activity inhibition. inhibition, % at 2 µM. 130,000 compounds, 0.9% hits. TRM-6 cells (human fetal islet line), insulin promoter-eGFP reporter, imaging; reporter expression induced with tamoxifen;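 active means inhibition above the mean plus 3 SD, with well images judged a real hit on visual review, cut at about 60% in these data, passing the limit was not always enough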
RGS16-Gao HTS = regulators of human RGS16-Galphao interaction. O15492+P09471. bead-based flow cytometry RGS16-Galphao binding, fluorescence; actives lie on both sides. binding response (% of control), % at 10 µM. 220,000 compounds, 0.38% hits;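 active means below 25% or above 175%, edge rows of some plates excepted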;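 further: Galphao activated by GDP with aluminum fluoride before binding; 100% = wells without compound and 0% = beads without RGS; some results beyond the cut were filed as inactive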
GALR2 ag = GALR2 (human) receptor agonism. O43603. GALR2-expressing cells, agonist activation read-out. activation, %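 (tested at 5 µM)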. 140,000 compounds, 0.48% hits. AID 803;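 active means above mean plus 3 SD of all compounds, about 5% in these data, not always enough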;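 further: 0% = vehicle buffer wells and 100% = reference agonist at full effect; tested in CHO reporter cells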
Insulin prom inh cell count = recorded beside Insulin prom inh, whose call it bears; normalized cell count, %; measured here: cell count, toxicity; reference of the scale not given here;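 cells exposed to compound for 48 h; stained nuclei by imaging scaled within each plate; lower means fewer cells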
HSV replic up primary fold = also measured in HSV replic up; calls as there; fold increase; compound at 10 µM; measured here: primary screen fold increase 10 uM; tested in PC3 cells;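 GFP signal in the first replicate; 1 = infected wells without compound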
Numbers without * were called inactive; i = inactive; nt = no result given.

nr	Compound	PKD1 kinase inh	HSV replic up	HSV replic up primary fold	Insulin prom inh
1	CCCCn1c(CN2CCN(CCO)CC2)nc2ccccc21	3	i	0.93	nt
2	Cc1ccc(CN2CCN(c3ncccn3)CC2)o1	2	i	1	3
3	COc1ccc2[nH]c(=O)c(CN(C(=O)C3CCCO3)c3ccc(C)c(C)c3)cc2c1 (configuration not stated)	nt	i	0.96	nt
4	Nc1c(C(=O)N/N=C/c2ccccc2)cnn1-c1ccccc1	nt	i	0.91	nt
5	CCOC(=O)c1c(NC(=O)Cn2nc(C(F)(F)F)cc2C)sc2c1CCC2	-3	i	1	nt
6	CCCSc1nc2c(c(=O)n1-c1ccc(OCC)cc1)SCC2	8	i	1	41
7	CC(CCc1ccccc1)NC(=O)COC(=O)C1CCC(C(C)(C)C)CC1 (configuration not stated)	3	i	0.97	nt
8	Cc1cc(N/N=C/c2ccc(F)cc2)nc(NCc2ccccc2)n1	nt	i	0.97	nt
9	O=C1C=C(N2CCCCC2)C2(CCCCC2)O1	2	i	0.94	50
10	COc1ccc(OC)c(NS(=O)(=O)c2ccc(N3CCCC3=O)cc2)c1	0	i	0.71	nt

nr	Insulin prom inh cell count	RGS16-Gao HTS	GALR2 ag
1	nt	102	-1.7
2	85	103	-4.9
3	nt	102	nt
4	nt	89	nt
5	nt	59	0.2
6	107	108	1.1
7	nt	104	-0.9
8	nt	110	nt
9	75	103	nt
10	nt	93	-1.2

Remaining list, next part
nr	Compound	PKD1 kinase inh	HSV replic up	HSV replic up primary fold	Insulin prom inh
11	Cc1nc(SCC(=O)NC2CCCC2)[nH]c(=O)c1Cc1ccccc1	4	i	0.93	11
12	CC(=O)Nc1ccc(NC(=O)CSc2nnc(CNc3ccc(F)cc3)n2CC2CCCO2)cc1 (configuration not stated)	1	i	0.95	nt
13	COc1ccc(CCNC(=O)CCCN2C(=O)c3ccccc3C2=O)cc1OC	-4	i	1.1	-62
14	O=C(CSc1ncn[nH]1)c1ccc2c(c1)OCO2	-4	i	1	64
15	O=C1N=C(N2CCC(Cc3ccccc3)CC2)S/C1=C/c1cn[nH]c1-c1ccccc1	9	i	0.74	-16
16	Cc1cc(C(=O)Cn2nc(C(=O)O)c3ccccc3c2=O)c(C)n1CCc1ccc(Cl)cc1	-3	i	0.79	nt
17	Nc1ccccc1N1CCN(C(=O)c2ccccc2)CC1	8	i	0.93	38
18	Cc1cccc(NC(=O)CCCSc2nc3ccccc3[nH]2)c1	1	i	0.92	-10
19	CCOC(=O)C(C(=O)OCC)c1cc(Br)c2noc3c2c1C(=O)c1ccccc1-3	-8	nt	nt	-35
20	CCOc1ccccc1CN1CCC(O)CC1	2	i	0.72	-10

nr	Insulin prom inh cell count	RGS16-Gao HTS	GALR2 ag
11	134	101	-1.8
12	nt	97	nt
13	58	102	-0.7
14	51	82	-4.0
15	108	96	0.3
16	nt	99	nt
17	155	96	-1.2
18	103	107	-0.4
19	130	68	-1.6
20	90	97	-1.3

(more compounds)
nr	Compound	PKD1 kinase inh	HSV replic up	HSV replic up primary fold	Insulin prom inh
21	COc1cccc(-n2c(SCC(=O)NCc3ccco3)nnc2-c2c[nH]c3ccccc23)c1	-17	i	0.74	nt
22	Cc1ccc2c(C)c(C(=O)NCc3ccc(S(N)(=O)=O)cc3)oc2c1C	-3	i	1	nt
23	O=C(COC(=O)C1COc2ccccc2O1)Nc1ccc2c(c1)CCC2 (configuration not stated)	2	i	0.9	25
24	CC1(C)NC(=O)N(CCCCSc2ccc(Cl)cc2)C1=O	-7	i	0.75	-500
25	O=C(O)CSc1ccc2ccccc2n1	-4	i	0.9	-44
26	Cc1cc(C)cc(NC(=O)Cn2cnc3c(nnn3Cc3ccc(F)cc3)c2=O)c1	2	i	0.94	-53
27	CCC(C)Nc1nc(OC)nc(N(C)C#N)n1 (configuration not stated)	0	i	1.1	nt
28	C=CCN=c1scc(-c2ccc3c(c2)NC(=O)CO3)n1/N=C(\C)c1ccccn1	4	i	1.2	-8
29	COc1cccc(C(=O)Nc2cccnc2)c1OC	-7	i	0.99	nt
30	COC(=O)[C@@H]1C2CCC(C(=O)Nc3ccccc3)(CC2)[C@@H]1C(=O)OC	-3	i	0.9	nt

nr	Insulin prom inh cell count	RGS16-Gao HTS	GALR2 ag
21	nt	69	-3.5
22	nt	96	nt
23	80	102	-2.0
24	92	101	-1.8
25	238	68	-0.5
26	90	105	nt
27	nt	99	-1.2
28	24	111	nt
29	nt	101	nt
30	nt	93	-1.0

Next section:
nr	Compound	PKD1 kinase inh	HSV replic up	HSV replic up primary fold	Insulin prom inh
31	O=C(CCCNS(=O)(=O)c1cccc2nsnc12)NCc1ccc(F)cc1	16	i	0.73	17
32	Cc1cccc(C)c1OCC(=O)OCC(=O)c1ccc2c(c1)NC(=O)CO2	-4	i	1.1	9
33	COc1ccc(Br)cc1CN(C)CC(=O)NCCc1ccccc1	3	i	0.85	nt
34	CC(=O)c1ccc(N2CCN(C(=O)Nc3ccc(F)cc3F)CC2)cc1	-5	i	0.91	0
35	CC(CN1CCCCC1)OC(=O)C(C)(c1ccccc1)c1ccccc1 (configuration not stated)	-8	i	1	-8
36	CC(=O)c1c(Nc2cccc(F)c2)oc(C)cc1=O	nt	i	0.98	nt
37	Cc1ccc(CNC(=O)C2CCCN(S(=O)(=O)c3cnc[nH]3)C2)cc1 (configuration not stated)	-9	i	1.1	nt
38	COc1ccc(C(=O)Nc2cccc(S(C)(=O)=O)c2)cc1OC	-1	i	0.97	40
39	Cc1ccc(-c2c(C)n([O-])c3c([n+]2=O)CCCC3)cc1	3	i	0.8	14
40	O=C(N/N=C/C1CC2CCC1C2)c1c[nH]c2ccccc12 (configuration not stated)	-3	i	1	nt

nr	Insulin prom inh cell count	RGS16-Gao HTS	GALR2 ag
31	65	99	-2.3
32	92	101	-3.7
33	nt	111	nt
34	128	103	nt
35	101	97	-0.1
36	nt	105	nt
37	nt	113	-0.3
38	79	105	nt
39	85	104	nt
40	nt	91	nt

(cont.)
nr	Compound	PKD1 kinase inh	HSV replic up	HSV replic up primary fold	Insulin prom inh
41	Cc1cc(Sc2nc(N)ncc2[N+](=O)[O-])ncn1	-2	i	0.73	nt
42	Cc1ccc(-c2sc(C)nc2CC(=O)O)cc1	-5	i	0.99	nt
43	CSC(=CC(=O)c1ccccc1)SC	20	i	0.95	30
44	c1ccc(SCc2nc(-c3ccccn3)no2)cc1	-2	i	1.1	15
45	CN1CCN(c2ccc(Cl)cc2NC(=O)c2ccc(=O)n(C)n2)CC1	-1	i	0.88	-55
46	COc1ccc(C(=O)C(CN2CCOCC2)c2ccccc2)cc1 (configuration not stated)	-2	i	0.51	92*
47	CCOC(=O)C1=C(C)N(C)C(=S)NC1c1cc(OC)ccc1OC (configuration not stated)	-10	i	0.99	-8
48	COC(=O)Cc1ccc(NC(=O)c2cccs2)cc1	-4	i	0.83	-460
49	O=C(Nc1ccc(N2CCCCC2)cc1)c1ccc2ccccc2n1	-8	i	1.1	nt
50	COc1ccc2oc(C(=O)OCc3c(C)noc3C)c(C)c2c1	-4	i	1	6

nr	Insulin prom inh cell count	RGS16-Gao HTS	GALR2 ag
41	nt	102	nt
42	nt	104	-1.9
43	79	106	-1.9
44	71	98	-2.4
45	93	106	nt
46	46*	98	-1.4
47	85	105	nt
48	49	81	-3.1
49	nt	77	nt
50	136	101	nt

(cont.)
nr	Compound	PKD1 kinase inh	HSV replic up	HSV replic up primary fold	Insulin prom inh
51	COC(=O)c1ccc(COC(=O)c2c(C)nn(Cc3ccccc3Cl)c2Cl)o1	-9	i	0.88	-5
52	CCCCCCC(=O)Nc1cc2c(C)cc(=O)oc2cc1C	-3	i	0.95	-10
53	COCCN(C(=S)Nc1ccccc1C)C(C)c1cccnc1 (configuration not stated)	5	i	0.95	19
54	CC1=NC(C(F)(F)F)(C(F)(F)F)C(C#N)=C(C)N1	-3	i	1.1	-9
55	COc1ccc(OCCC(=O)NCC23CC4CC(CC(C4)C2)C3)cc1	-3	i	0.97	nt
56	Cc1cc2nc(CSc3ccccc3)cc(=O)n2[nH]1	-1	i	0.96	nt
57	Cc1ccc(-c2cn3c(=O)cc(C)[nH]c3n2)cc1	-1	i	0.89	-54
58	COc1ccc(OC)c(-n2c(CNC3CCN(Cc4ccccc4)CC3)nc3ccccc3c2=O)c1	-6	i	0.54	10
59	CC1=CC2=NC(=O)/C(=C\c3cc(C)n(-c4ccccc4F)c3C)C(=N)N2O1	-9	i	0.87	3
60	COc1nnc(-c2ccc(N3CCCCC3)c(NC(=O)C3CCCCC3)c2)c2ccccc12	-9	nt	nt	-50

nr	Insulin prom inh cell count	RGS16-Gao HTS	GALR2 ag
51	164	67	-0.7
52	161	101	-1.4
53	135	121	-1.4
54	113	101	-1.5
55	nt	105	nt
56	nt	111	nt
57	120	97	-1.1
58	100	135	-1.4
59	106	50	5.4*
60	89	101	-2.4

In the list so far, two contain a cyano group:
nr	Compound	PKD1 kinase inh	HSV replic up	HSV replic up primary fold	Insulin prom inh
27	CCC(C)Nc1nc(OC)nc(N(C)C#N)n1 (configuration not stated)	0	i	1.1	nt
54	CC1=NC(C(F)(F)F)(C(F)(F)F)C(C#N)=C(C)N1	-3	i	1.1	-9

nr	Insulin prom inh cell count	RGS16-Gao HTS	GALR2 ag
27	nt	99	-1.2
54	113	101	-1.5

(list continues)
nr	Compound	PKD1 kinase inh	HSV replic up	HSV replic up primary fold	Insulin prom inh
61	N/C(=N\NC(=O)Nc1ccccc1)c1ccccn1	nt	i	0.97	nt
62	Cc1ccccc1CSc1nc(C(C)(C)C)cc(=O)[nH]1	6	i	1.1	-21
63	CC12CCC(C/C1=N\N=C1\NC(=O)/C(=C\c3ccc(Cl)cc3)S1)C2(C)C (configuration not stated)	-1	i	0.82	18
64	O=C(NCc1ccccn1)C1CCCN(S(=O)(=O)c2cccc3nsnc23)C1 (configuration not stated)	6	i	0.99	nt
65	C/C(Cn1nc([N+](=O)[O-])cc1C)=N\NC(=O)COc1ccccc1[N+](=O)[O-]	6	i	1	0
66	O=C(Nc1nncs1)C(Sc1ccccc1)c1ccccc1 (configuration not stated)	-6	i	0.96	24
67	NS(=O)(=O)c1ccc(S(=O)(=O)N2CCCC2)cc1	-2	i	1	-10
68	COc1ccc(NC(=S)N2CCCC2)cc1	8	i	1	0
69	CC1=C(C(=O)OC(C)(C)C)C(c2ccco2)C(C#N)=C(N)O1 (configuration not stated)	-2	i	0.79	-8
70	O=C(NCc1nc2ccccc2[nH]1)C1=C[C@H](c2ccc(Br)cc2)C[C@H](OCc2ccc(CO)cc2)O1	5	i	1	nt

nr	Insulin prom inh cell count	RGS16-Gao HTS	GALR2 ag
61	nt	99	nt
62	101	101	nt
63	88	120	-1.6
64	nt	97	-1.6
65	48	104	0.0
66	188	106	0.1
67	140	89	-0.5
68	91	101	-0.9
69	156	100	-1.1
70	nt	93	nt

Arranged by molar mass (rising): part of the list above.
nr	Compound	PKD1 kinase inh	HSV replic up	HSV replic up primary fold	Insulin prom inh
61	N/C(=N\NC(=O)Nc1ccccc1)c1ccccn1	nt	i	0.97	nt
67	NS(=O)(=O)c1ccc(S(=O)(=O)N2CCCC2)cc1	-2	i	1	-10
69	CC1=C(C(=O)OC(C)(C)C)C(c2ccco2)C(C#N)=C(N)O1 (configuration not stated)	-2	i	0.79	-8

nr	Insulin prom inh cell count	RGS16-Gao HTS	GALR2 ag
61	nt	99	nt
67	140	89	-0.5
69	156	100	-1.1

Going on with the list.
nr	Compound	PKD1 kinase inh	HSV replic up	HSV replic up primary fold	Insulin prom inh
71	O=C(/C=C/c1ccccc1)Oc1ccc(C(=S)N2CCOCC2)cc1	-1	i	1	nt
72	O=C(NCC1CCCO1)c1c(O)c2cccc3c2n(c1=O)CCC3 (configuration not stated)	-7	i	0.83	71*
73	CC(=O)N1CCC(C(=O)c2ccc(Cl)cc2)CC1	-3	i	1	-23
74	COc1cnc(-c2ccccc2)nc1OC	-2	i	0.94	nt
75	CCOc1ccccc1NC(=O)NC(=O)N(C)S(C)(=O)=O	-7	i	0.73	nt
76	CCCNc1ccc(S(=O)(=O)N(C(C)C)C(C)C)cn1	5	i	0.97	-16
77	O=C(Nc1nccs1)c1ccc(CSc2nnnn2-c2ccccc2)cc1	-8	i	0.95	5
78	N=c1c(C(=O)NCc2ccc(F)cc2)cc2c(=O)n3ccccc3nc2n1CCCN1CCOCC1	-4	i	1.1	-52
79	CCCn1c(SCC#N)nc2c(c1=O)C1(CCCC1)Cc1ccccc1-2	0	i	1	-7
80	COc1ccc(Nc2nc(NCc3ccco3)nc(N)c2[N+](=O)[O-])cc1	nt	i	1.1	nt
81	O=C(N/N=C/c1ccco1)c1ccc(Br)o1	-14	i	1	nt

nr	Insulin prom inh cell count	RGS16-Gao HTS	GALR2 ag
71	nt	97	nt
72	91*	106	-0.2
73	119	101	0.4
74	nt	122	nt
75	nt	92	nt
76	40	97	-1.5
77	99	97	-0.9
78	55	91	9.7*
79	71	101	-5.9
80	nt	93	nt
81	nt	101	-0.9

Not a hit list; overall some 1.3% were active at least once.
